Mtb hypoxia rep: Mtb hypoxia fluorescent reporter inhibition; M. tuberculosis hypoxia-regulated fluorescent reporter, fluorescence; fluorescence inhibition, % (no concentration beside the values); 300,000 tested, 0.1% active;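 active means 35 to 45% if threefold the growth effect, above 45% if 1.5-fold the growth effect; inactive means the rest, general growth blockers included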;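 further: wells of about 50 µL received 100 nL stock; 0% = vehicle wells and 100% = reference inhibitor wells; whole bacteria with a GFP reporter of the hypoxia response; strong numbers were not always called active; many hits fall short of the cut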
BJeLR viability: kills HRASV12-expressing BJeLR cells; BJeLR (HRASV12) viability, CellTiter-Glo ATP luminescence, 48 h; reference of the scale not given here; inhibition, % (concentration not given with the values); 300,000 tested, 0.17% active;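 active means replicate mean above 50%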;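 further: 50 nL library stock added to about 25 µL; numbers are from one replicate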
Bead autofluor: flagged as autofluorescent in microsphere protease counterscreen. compound autofluorescence counterscreen, microsphere flow cytometry; hits give high values. fluorescence intensity (no concentration beside the values). 360,000 tested, 3.1% active. AID 624483;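 active means at least 3 SD above the mean of all compounds, about 16000 in these data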;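 further: 100 nL of 1 mM stock went into each well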
PrP 5UTR inh: suppresses PrP 5' UTR mRNA reporter expression; AID 488862; 340,000 tested, 0.35% active; cell-based PrP 5' UTR mRNA reporter, plate reader; inhibition, % (no concentration beside the values);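 active means every replicate at 50% or more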;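 further: 0 = median of the neutral control wells; tested in H4 reporter cells; numbers are from one replicate; inactives centre near -14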
RN4220 kill: kills Staphylococcus aureus RN4220; S. aureus RN4220 growth, OD600, 16 h; inhibition, % (test concentration not listed); 330,000 tested, 0.33% active;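 active means z-score of -3 or lower and OD600 up to 0.18 on both plates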;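 further: plate controls were untreated cells for no effect and reference antibiotic for full effect; stock transfer was 100 nL into about 80 µL; one replicate is shown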
ugtP null kill: compounds lethal to S. aureus RN4220 ugtP deletion mutant | OD600 growth, 16 h; some inactives read as strong as hits | growth inhibition, % (test concentration not listed) | 330,000 tested, 0.54% active | AID 1259309;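 active means z-score under -3 and OD600 up to 0.15 on both plates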;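 further: plate controls were untreated wells for no effect and antibiotic for full effect; wells of about 80 µL received 100 nL stock; the first replicate is given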
Mtb hypoxia rep growth: recorded beside Mtb hypoxia rep, whose call it bears; growth inhibition, %; measured here: M. tuberculosis growth (absorbance);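 0% = vehicle and 100% = reference antibiotic; read after six days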
* marks the source's active call; other numbers are inactive results; / = not tested or not shown; & = joins results of further samples.

#1 NC(=O)CCCSc1nc2ccccc2[nH]1
#2 COc1ccc(OC)c(S(=O)(=O)N2CCC(C(=O)NC3CCCCC3)CC2)c1
#3 COc1ccc(OC)c(C(=O)c2ccc(C(=O)Nc3ccc(NC(C)=O)cc3)cc2)c1
#4 COc1ccccc1-c1nnc(NC(C)=O)s1
#5 O=C(/C=C/c1ccccc1)c1c[nH]c2ccccc12
#6 COc1cc2sc3ccc(C#CC4(O)CCCCC4)cc3c(=O)c2cc1OC
#7 CN(C(=O)COc1ccc(Cl)cc1Cl)C1(C)CCS(=O)(=O)C1 (stereo not drawn)
#8 O=c1oc2cc(Br)ccc2n1Cc1ccccc1
Compound | 1 | 2 | 3 | 4 | 5 | 6 | 7 | 8
Mtb hypoxia rep | 9 | 19 | -5 | / | -10 | 13 | 5 | 15
Mtb hypoxia rep growth | 14 | 4 | -5 | / | -4 | 18 | 2 | 12
BJeLR viability | -3 | -5 | -4 | 6 | -3 | 13 | 8 | -8
Bead autofluor | 4532 | 3121 | 5669 | 2632 | 3344 | 3696 | 4274 | 4197
PrP 5UTR inh | -16 | 0 | 5 | -43 | -68 | 22 | -13 | -50
RN4220 kill | 4.9 | 4.8 | 4.1 | 0.0 | -6.4 | -4.7 | 2.8 | -5.8
ugtP null kill | -3 | 7 | -2 | 3 | 3 | -45 | 4 | 15

#9 O=C(CCN1C(=O)/C(=C/c2cccs2)SC1=S)Nc1ccc(O)cc1
#10 CCn1c(O)c(C(c2ccccn2)c2c(O)n(CC)c(=S)[nH]c2=O)c(=O)[nH]c1=S
#11 Cn1c(SCc2cccc(C#N)c2)nc2ccccc2c1=O
#12 O=C(Cc1ccc([N+](=O)[O-])cc1)NCc1cccnc1
#13 O=C(N/N=C/c1c[nH]c2ccccc12)c1ccc(Cl)cc1
#14 N#CCCN1CCN(C2=NC(=O)C(=C3CCCCC3)S2)CC1
#15 CN(C)S(=O)(=O)c1cccc(C(=O)Nc2ccc(N3CCOCC3)cc2)c1
#16 Cc1ccc2c(c1)C(O)(CC(=O)c1ccc(C)s1)C(=O)N2 (stereo not drawn)
Compound | 9 | 10 | 11 | 12 | 13 | 14 | 15 | 16
Mtb hypoxia rep | 6 | 8 | -4 | 8 | / | 9 | -16 | /
Mtb hypoxia rep growth | 7 | 0 | -1 | 6 | / | 2 | 8 | /
BJeLR viability | 3 | 6 | 12 | -5 | 2 | 2 | -3 | -1
Bead autofluor | 5350 | 11213 | 2912 | 3693 | 2601 | 22432* | 4422 | 2085
PrP 5UTR inh | -14 | -15 | -13 | -27 | -27 | -30 | -14 | -55
RN4220 kill | 2.1 | 1.3 | 9.3 | -0.5 | / | 9.1 | 5.1 | /
ugtP null kill | 7 | 1 | 8 | 12 | / | -1 | -2 | /

Limited to BJeLR viability and Mtb hypoxia rep growth, for three of the compounds above:
| no. | canonical_smiles | BJeLR viability | Mtb hypoxia rep growth |
| --- | --- | --- | --- |
| 12 | O=C(Cc1ccc([N+](=O)[O-])cc1)NCc1cccnc1 | -5 | 6 |
| 15 | CN(C)S(=O)(=O)c1cccc(C(=O)Nc2ccc(N3CCOCC3)cc2)c1 | -3 | 8 |
| 13 | O=C(N/N=C/c1c[nH]c2ccccc12)c1ccc(Cl)cc1 | 2 | / |

The list continues:
#17 O=C(Cn1cnc2scc(-c3cccc([N+](=O)[O-])c3)c2c1=O)NCc1ccco1
#18 Cc1cc(C)nc(N/N=C2/CCCC/C2=C\c2ccccc2)n1
#19 Cc1csc(=Nc2ccccc2)n1Cc1ccco1
#20 O=[N+]([O-])c1ccc(/C=N/N/C(=N/c2ccccn2)c2ccccn2)cc1
#21 CSc1ccc(C(=O)C2CCCN(Cc3cc4ccccc4[nH]3)C2)cc1 (stereo not drawn)
#22 O=C(NCCCN1CCCCCC1)c1cc2c(=O)oc3ccccc3c2s1
#23 O=C(C1CCN(S(=O)(=O)c2ccc(Br)s2)CC1)N1CCCCC1
#24 CCOc1ccccc1-n1cnc2cc(C(=O)NCc3ccco3)ccc21
Compound | 17 | 18 | 19 | 20 | 21 | 22 | 23 | 24
Mtb hypoxia rep | -10 | / | 13 | / | -3 | 3 | 16 | /
Mtb hypoxia rep growth | 4 | / | -4 | / | -1 | 7 | 11 | /
BJeLR viability | 0 | -2 | 4 | 3 | -5 | -4 | -5 | -1
Bead autofluor | 2053 | 4322 | 2641 | 9609 | 2220 | 6879 | 3831 | 2848
PrP 5UTR inh | 0 | -35 | -16 | -22 | -27 | -19 | -30 | -16
RN4220 kill | 0.8 | / | 2.7 | / | -1.6 | 0.8 | -0.2 | -0.6
ugtP null kill | -3 | / | 25 | / | -14 | -2 | 6 | 1

#25 COc1ccc(C(=O)NC(=S)NNC(=O)Cc2cccs2)cc1
#26 Nc1cc(N)nc(SCC(=O)N2CCCCC2)n1
#27 CNNC(=S)Nc1cccc(C(F)(F)F)c1
#28 O=C(NCc1ccncc1)C(=O)NN=Cc1ccccc1OCc1ccccc1
#29 Cc1ccc(-c2nnc(SCC(=O)NC3CCCC3)n2N)cc1
#30 CC(=NNc1cc(C(F)(F)F)ccc1Cl)c1ccncc1
#31 CC1CCN(CCOCCSc2ccc(Cl)cc2)CC1
#32 C=C(C)COc1ccc(-c2nc(N)ncc2-c2ccc(OC)c(OC)c2)c(O)c1
Compound | 25 | 26 | 27 | 28 | 29 | 30 | 31 | 32
Mtb hypoxia rep | 8 | -4 | 5 | 8 | 8 | 0 | 0 | -2
Mtb hypoxia rep growth | 16 | -1 | 1 | 6 | 9 | -3 | 14 | -1
BJeLR viability | 4 | -8 | 0 | / | / | / | -8 | -3
Bead autofluor | 9304 | 6934 | 4497 | / | 3598 | / | 2642 | 3996
PrP 5UTR inh | -4 | -1 | / | / | 6 | / | -5 | -2
RN4220 kill | 26 | 3.2 | 4.8 | 6.6 | 3.7 | -7.6 | -0.4 | -0.2
ugtP null kill | 6 | 2 | 11 | 0 | 5 | 20 | 12 | 5

#33 O=C(CNC(=O)c1ccccc1)N/N=C/c1cn[nH]c1-c1ccccc1
#34 Clc1ccc(COC(Cn2ccnc2)c2ccc(Cl)cc2Cl)c(Cl)c1 (stereo not drawn)
#35 Cn1c(=O)oc2cc(S(=O)(=O)N3CCCC(C(=O)N4CCc5ccccc5C4)C3)ccc21 (stereo not drawn)
#36 Cc1cccc(OCC2Cn3c(nc4c3c(=O)[nH]c(=O)n4C)O2)c1 (stereo not drawn)
#37 CCOC(=O)C1CCN(C(=O)C2CCC(=O)N(CC3CCCCC3)C2)CC1 (stereo not drawn)
#38 CCOc1cc(C=NO)ccc1OCc1ccc([N+](=O)[O-])cc1
#39 COc1ccc2c(CCNC(=O)c3ccc([N+](=O)[O-])cc3)c[nH]c2c1
#40 Cc1cc(Br)cc(Cl)c1OC(=O)c1ccncc1
Compound | 33 | 34 | 35 | 36 | 37 | 38 | 39 | 40
Mtb hypoxia rep | / | / | 16 | 14 | 0 | -6 | 7 | 1
Mtb hypoxia rep growth | / | / | 7 | 5 | 10 | 2 | -8 | -7
BJeLR viability | -18 | 1 | 9 | 13 | -4 | / | -1 | -4
Bead autofluor | 2461 | 5830&5373 | 6384 | 3683 | 6227 | / | 2691 | 4285
PrP 5UTR inh | -6 | -18&-16 | -7 | -11 | -5 | / | -7 | -9
RN4220 kill | / | 100* | 3.3 | 2.5 | -1.0 | 7.3 | 4.8 | 2.4
ugtP null kill | / | 100* | 7 | 13 | -7 | 9 | 3 | 3

#41 CCOC(=O)c1cc2c(nc1NC(=S)Nc1ccccc1)CC(C)(CC)OC2 (stereo not drawn)
#42 COc1cccc(-n2c(SCC#N)nnc2-c2cnccn2)c1
#43 O=C1OC2CC3CC1CC(O)(C3)C2 (stereo not drawn)
#44 CCc1ccc(-n2c(=O)c3ccc(C(=O)NCCc4ccccc4)cc3n(CC(N)=O)c2=O)cc1
#45 CC(Oc1cc(C(F)(F)F)cc(C(F)(F)F)c1)C(=O)NC(N)=O (stereo not drawn)
#46 CCN(CC)CCN=C1CCCc2ccccc2N1
#47 CCOC(=O)CSc1ccc(S(=O)(=O)N2CCCCC2)cc1[N+](=O)[O-]
#48 COC(=O)c1ccccc1NC(=O)c1cc(-c2ccc(O)cc2)on1
Compound | 41 | 42 | 43 | 44 | 45 | 46 | 47 | 48
Mtb hypoxia rep | -12 | 7 | 3 | 8 | / | / | 10 | -5
Mtb hypoxia rep growth | 6 | 7 | 0 | 12 | / | / | 8 | -3
BJeLR viability | -1 | 5 | -1 | 10 | 2 | 3 | 5 | 0
Bead autofluor | 1988 | 15146 | 6521 | 3482 | 3295 | 2455 | 9441 | 6404
PrP 5UTR inh | -2 | -5 | -7 | -1 | -18 | -20 | -9 | -14
RN4220 kill | 1.8 | 5.3 | 3.6 | -0.8 | -6.5 | -2.3 | 8.8 | 20
ugtP null kill | 4 | 3 | 8 | 15 | -2 | 0 | 3 | 13

#49 CCC(C)(C)n1nnnc1CN(Cc1ccco1)Cc1cc2cc3c(cc2[nH]c1=O)OCO3
#50 COc1cc(C=NN2C(C)CCCC2C)cc(OC)c1O (stereo not drawn)
#51 CCn1cc(CN2CCCC(CNS(=O)(=O)c3cccc4cccnc34)C2)cn1 (stereo not drawn)
#52 CCOc1ccc([N+](=O)[O-])cc1CNC1CCCCCCC1
#53 Cc1ccc2c(C)nc(N=C(N)NC(=O)N3c4ccccc4Sc4ccccc43)nc2c1
#54 O=C1/C(=C/c2ccco2)CCc2ccccc21
#55 Cc1cccc(NC(=O)COC(=O)c2cc(C)oc2C)c1
#56 O=C1c2ccccc2NC(c2ccco2)N1/N=C/c1ccco1 (stereo not drawn)
Compound | 49 | 50 | 51 | 52 | 53 | 54 | 55 | 56
Mtb hypoxia rep | / | 15 | 6 | -1 | 1 | 0 | 4 | /
Mtb hypoxia rep growth | / | 4 | 7 | 4 | 5 | 5 | 3 | /
BJeLR viability | -13 | / | -5 | 21 | / | -10 | -2 | 4
Bead autofluor | 2866 | / | 5303 | 4003 | / | 8581 | 5183 | 2172
PrP 5UTR inh | -2 | / | -9 | -14 | / | -50 | -13 | -34
RN4220 kill | 2.8 | 3.6 | 0.2 | 3.8 | 6.2 | 3.3 | 2.7 | /
ugtP null kill | 10 | 4 | 3 | 7 | -2 | 19 | 2 | /

#57 CCCCNC(=O)C1CC(=O)N(C2CCCCC2)C1 (stereo not drawn)
#58 NS(=O)(=O)c1ccc(NC(=O)NC2CC(=O)N(c3ccc4c(c3)OCCO4)C2)cc1 (stereo not drawn)
#59 Cc1ccccc1NS(=O)(=O)c1cc(C(=O)NCCC2=CCCCC2)ccc1Cl
#60 CC(C)(C)c1ccc(CCC2OCC(C[N+]3(C)CCOCC3)O2)cc1 (stereo not drawn)
#61 C#CCNC(=O)C1=C[C@@H](c2ccc(Br)cc2)C[C@@H](OCCCCO)O1
#62 CCOC(=O)C1C(=O)N(O)CC1c1cccc(Oc2ccccc2)c1 (stereo not drawn)
#63 COc1ccccc1C(=O)NC(=S)Nc1ccccc1N1CCCC1
#64 CC(C)C(C)N(Cc1cccc(C(=O)O)c1)C(=O)c1ccc2ccccc2n1 (stereo not drawn)
Compound | 57 | 58 | 59 | 60 | 61 | 62 | 63 | 64
Mtb hypoxia rep | 0 | 10 | 4 | 9 | / | 5 | / | 5
Mtb hypoxia rep growth | 14 | 3 | 10 | 12 | / | 6 | / | 6
BJeLR viability | -1 | 9 | 4 | 8 | -5 | 6 | -1 | 3
Bead autofluor | 9631 | 5896 | 10412 | 6677 | 4189 | 2159 | 5701 | 3467
PrP 5UTR inh | -22 | -3 | -11 | -11 | -12 | -13 | -6 | /
RN4220 kill | -2.3 | 4.3 | 2.3 | 1.7 | / | 7.3 | / | 6.1
ugtP null kill | -3 | 4 | -13 | 4 | / | 5 | / | -3

#65 CCOc1cccc(CNc2ccc(O)cc2)c1OCc1ccc(Cl)cc1
#66 CCc1cc2c(=O)n3c(nc2s1)-c1[nH]c2ccc(OC)cc2c1CC3
#67 Cc1cccnc1NC(=O)c1cccc(S(=O)(=O)N2CCN(c3ccc(F)cc3)CC2)c1
#68 CCc1nnc(NC(=O)CCC(=O)NC2CC2)s1
Compound | 65 | 66 | 67 | 68
Mtb hypoxia rep | / | -2 | 0 | 5
Mtb hypoxia rep growth | / | 1 | 2 | 2
BJeLR viability | -7 | 0 | 10 | -5
Bead autofluor | 2456 | 1927 | 5863 | 5568
PrP 5UTR inh | -42 | -71 | -10 | 3
RN4220 kill | -3.6 | 4.3 | -1.7 | 1.4
ugtP null kill | 6 | -5 | -2 | 4

Screening results as filed in PubChem BioAssay.
